PKD1 inh = PKD1 (human) kinase inhibition; Q15139; PKD1 kinase fluorescence polarization assay; inhibition, %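 (about 10 µM by stock and volumes)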; hit rate 0.056% among 200,000; AID 797;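 active = inhibition of 50% or more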;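 also: controls were vehicle for no effect and a reference inhibitor for full effect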
Target sequence (Q15139 whole entry, looked up): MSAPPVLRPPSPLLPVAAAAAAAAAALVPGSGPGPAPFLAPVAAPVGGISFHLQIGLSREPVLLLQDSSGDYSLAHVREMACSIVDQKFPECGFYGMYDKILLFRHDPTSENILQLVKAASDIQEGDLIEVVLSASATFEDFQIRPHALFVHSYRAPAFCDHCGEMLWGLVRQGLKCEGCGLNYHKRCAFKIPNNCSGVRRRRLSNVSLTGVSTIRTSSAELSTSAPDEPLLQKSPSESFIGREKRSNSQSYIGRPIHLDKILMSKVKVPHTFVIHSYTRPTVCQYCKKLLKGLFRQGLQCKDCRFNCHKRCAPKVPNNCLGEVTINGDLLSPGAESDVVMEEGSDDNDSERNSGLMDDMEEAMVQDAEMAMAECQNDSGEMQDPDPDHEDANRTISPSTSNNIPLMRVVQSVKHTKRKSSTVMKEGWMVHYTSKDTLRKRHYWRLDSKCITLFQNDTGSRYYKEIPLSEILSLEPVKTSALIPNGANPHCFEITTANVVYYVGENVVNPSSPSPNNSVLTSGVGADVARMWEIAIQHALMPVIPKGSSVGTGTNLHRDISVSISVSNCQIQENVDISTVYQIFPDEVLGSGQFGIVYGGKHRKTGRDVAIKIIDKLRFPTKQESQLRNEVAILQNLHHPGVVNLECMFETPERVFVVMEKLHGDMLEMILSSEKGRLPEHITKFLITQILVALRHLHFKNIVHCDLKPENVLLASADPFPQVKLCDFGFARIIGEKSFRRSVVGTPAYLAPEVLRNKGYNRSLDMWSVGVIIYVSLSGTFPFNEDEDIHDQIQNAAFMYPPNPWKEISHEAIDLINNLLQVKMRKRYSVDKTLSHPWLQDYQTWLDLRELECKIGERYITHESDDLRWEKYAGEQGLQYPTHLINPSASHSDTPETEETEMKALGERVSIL
Insulin prom inh = TRM-6 insulin promoter activity inhibition; TRM-6 cells (human fetal islet line), insulin promoter-eGFP reporter, imaging; reporter expression induced with tamoxifen; inhibition, % at 2 µM; hit rate 0.9% among 130,000;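 active = inhibition above the mean plus 3 SD, with well images judged a real hit on visual review, cut at about 60% in these data, passing the limit was not always enough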
HSV augment = increases HSV replication in cells | HSV replication augmentation in cells, fold increase | maximum fold increase | hit rate 0.005% among 220,000;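 active = peak rise of 1.5-fold or more in the series; tested in PC3 cells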;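 also: first round at 10 µM; read as green reporter fluorescence; hits show the peak of a series up to 25 µM; 1 = signal of infected wells without compound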
GALR2 agonist = agonists of human galanin receptor 2 (GALR2). O43603. GALR2-expressing cells, agonist activation read-out. activation, %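 (tested at 5 µM)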. hit rate 0.48% among 140,000. AID 803;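 active = above mean plus 3 SD of all compounds, about 5% in these data, not always enough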;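 also: 0% = vehicle buffer wells and 100% = reference agonist at full effect; tested in CHO reporter cells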
RGS16-Gao = regulators of human RGS16-Galphao interaction; O15492+P09471; bead-based flow cytometry RGS16-Galphao binding, fluorescence; actives lie on both sides; binding response (% of control), % at 10 µM; hit rate 0.38% among 220,000; AID 1441;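 active = below 25% or above 175%, edge rows of some plates excepted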;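 also: Galphao activated by GDP with aluminum fluoride before binding; 100% = wells without compound and 0% = beads without RGS; some results beyond the cut were filed as inactive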
Insulin prom inh cell count = recorded beside Insulin prom inh, whose call it bears; normalized cell count, %; measured here: cell count, toxicity; reference of the scale not given here;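 cells exposed to compound for 48 h; stained nuclei by imaging scaled within each plate; lower means fewer cells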
HSV augment primary fold = further read-out of HSV augment, marked with its call; fold increase; compound at 10 µM; measured here: primary screen fold increase 10 uM; tested in PC3 cells;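 GFP signal in the first replicate; 1 = infected wells without compound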
Starred values were filed as active, the others as inactive.

Screening CN(C)S(=O)(=O)N(CC(=O)N1CCN(Cc2ccccc2)CC1)c1ccccc1 returned HSV augment inactive, RGS16-Gao 88.6 and HSV augment primary fold 1.04.
`Cc1ccc(S(=O)(=O)c2c(N)n(CCC(C)C)c3nc4ccccc4nc23)cc1` gave PKD1 inh 0.9, Insulin prom inh 5.6, HSV augment inactive, GALR2 agonist 2.1, RGS16-Gao 100.9, Insulin prom inh cell count 112.5 and HSV augment primary fold 0.84.
For O=C(O)C1OC(C(=O)O)C2C1C(F)(F)C2(F)F (configuration not stated) the results were PKD1 inh 22.2, HSV augment inactive, GALR2 agonist -0.2, RGS16-Gao 103.0 and HSV augment primary fold 0.94.
`Cc1ccccc1Cn1cnc2ccccc2c1=O` gave PKD1 inh -3.8, HSV augment inactive, GALR2 agonist 0.0, RGS16-Gao 107.9 and HSV augment primary fold 1.
CCOc1ccc(NC(=O)CN2C(=O)CSC(C)C2=O)cc1 (configuration not stated) was read as PKD1 inh -0.6, Insulin prom inh 9.1, HSV augment inactive, RGS16-Gao 106.8, Insulin prom inh cell count 122.9 and HSV augment primary fold 0.93.
Screening CCN(CCn1cccn1)C(=O)CCc1nnc(C2CCCCC2)o1 returned HSV augment inactive, RGS16-Gao 103.6 and HSV augment primary fold 1.09.
`CC(Sc1nc2ccccc2[nH]1)C(=O)Nc1ccc2c(c1)OCCO2` (configuration not stated) gave PKD1 inh 2.5, Insulin prom inh 20.9, HSV augment inactive, GALR2 agonist -0.8, RGS16-Gao 94.9, Insulin prom inh cell count 72.8 and HSV augment primary fold 1.04.
For CCC(=O)N(CC)Cc1cc(=O)[nH]c2ccccc12 the results were PKD1 inh -1.2, Insulin prom inh 14.3, HSV augment inactive, GALR2 agonist -1.4, RGS16-Gao 104.9, Insulin prom inh cell count 95.7 and HSV augment primary fold 1.06.
Cc1cccc(N(C(=O)CCC(=O)Nc2cccnc2)C(C(=O)NC2CCCC2)c2ccncc2)c1 (configuration not stated) was read as PKD1 inh -6.7, Insulin prom inh -320.0, HSV augment inactive, GALR2 agonist -2.4, RGS16-Gao 99.1, Insulin prom inh cell count 94.3 and HSV augment primary fold 1.02.
`CCN1CCN(C(c2ccc(OC)cc2)c2nnnn2Cc2ccc3c(c2)OCO3)CC1` (configuration not stated) gave PKD1 inh 3.5, HSV augment inactive, RGS16-Gao 101.8 and HSV augment primary fold 0.9.
For CN(c1ccccc1)S(=O)(=O)c1cccc(NC(=O)CSc2ncn[nH]2)c1 the results were PKD1 inh 7.3, Insulin prom inh 17.6, HSV augment inactive, GALR2 agonist -2.4, RGS16-Gao 90.0, Insulin prom inh cell count 110.5 and HSV augment primary fold 0.93.
Screening O=C(Nc1ccc(N2CCOCC2)c(S(=O)(=O)Nc2cc(Cl)ccc2Cl)c1)c1cccnc1 returned HSV augment inactive, RGS16-Gao 97.8 and HSV augment primary fold 1.05.
For Cc1cc(SCC(=O)Nc2ccccc2)nc(C)n1 the results were PKD1 inh 13.4, HSV augment inactive, GALR2 agonist -1.3, RGS16-Gao 100.6 and HSV augment primary fold 0.97.
`COc1ccc2c(c1)-c1nc(/N=C/c3ccc(O)cc3)sc1CC2` gave PKD1 inh 5.6, Insulin prom inh 76.9*, GALR2 agonist -2.0, RGS16-Gao 101.7 and Insulin prom inh cell count 144.5*.
Screening COC(=O)c1c(C)oc(C)c1S(=O)(=O)NCc1ccc(OC)cc1 returned HSV augment inactive, RGS16-Gao 98.9 and HSV augment primary fold 1.03.
Screening Fc1ccc2[nH]c3c(Cl)ncnc3c2c1 returned PKD1 inh 1.3, HSV augment inactive, RGS16-Gao 99.6 and HSV augment primary fold 0.88.
CCOc1ccc(NC(=S)N(CCCN2CCCC2)Cc2cccn2Cc2ccc(Cl)cc2)cc1 was read as PKD1 inh -5.4, Insulin prom inh -133.3, HSV augment inactive, RGS16-Gao 93.4, Insulin prom inh cell count 75.8 and HSV augment primary fold 0.69.
`Cc1cc(-c2ccccc2)nc(N2CCC(C(=O)NC34CC5CC(CC(C5)C3)C4)CC2)n1` gave PKD1 inh 0.7, Insulin prom inh -10.3, HSV augment inactive, GALR2 agonist 0.1, RGS16-Gao 101.6, Insulin prom inh cell count 213.2 and HSV augment primary fold 0.97.
CCCc1nnc(SCC(=O)O)n1/N=C/c1ccc2c(c1)OCO2 was read as PKD1 inh -3.8, Insulin prom inh -9.1, HSV augment inactive, GALR2 agonist -1.4, RGS16-Gao 72.0, Insulin prom inh cell count 57.0 and HSV augment primary fold 0.94.
COCCSc1nnc(NC(=O)c2cc(OC)c(OC)cc2[N+](=O)[O-])s1 was read as PKD1 inh -4.0, HSV augment inactive, RGS16-Gao 101.5 and HSV augment primary fold 0.99.
O=C(COC(=O)CCc1nc2ccccc2s1)Nc1nc(-c2ccccc2)cs1 was read as PKD1 inh 4.4, Insulin prom inh -3.2, HSV augment inactive, GALR2 agonist -0.9, RGS16-Gao 105.6, Insulin prom inh cell count 110.9 and HSV augment primary fold 0.99.
`CCOC(=O)c1ccc(NC(=O)Nc2ccn(C)n2)cc1` gave PKD1 inh -13.6, Insulin prom inh 53.6, HSV augment inactive, GALR2 agonist -1.4, RGS16-Gao 102.9, Insulin prom inh cell count 109.1 and HSV augment primary fold 0.96.
For CC#CCN(CC#CC)S(=O)(=O)c1ccc(S(=O)(=O)N2CCOCC2)cc1 the results were PKD1 inh 0.0, Insulin prom inh -6.1, HSV augment inactive, GALR2 agonist -1.9, RGS16-Gao 103.0, Insulin prom inh cell count 97.5 and HSV augment primary fold 0.95.
Screening O=C1CN(C(=O)COC(=O)C2=COCCO2)c2ccccc2N1 returned PKD1 inh -7.0, HSV augment inactive, GALR2 agonist -0.1, RGS16-Gao 106.4 and HSV augment primary fold 0.83.
COC(=O)[C@@]1(Cc2ccc(F)cc2)[C@H]2c3cc(C(=O)N(C)C)n(CCc4ccccn4)c3C[C@H]2CN1C(=O)c1ccccc1 was read as PKD1 inh -5.6, Insulin prom inh -35.0, HSV augment inactive, GALR2 agonist 0.1, RGS16-Gao 104.4, Insulin prom inh cell count 89.2 and HSV augment primary fold 0.76.
`CC(c1ccccc1)n1c(-c2cccs2)nc2c(c(=O)c3ccccc3n2C)c1=O` (configuration not stated) gave HSV augment inactive, RGS16-Gao 97.2 and HSV augment primary fold 0.96.
`C/C(=N/NC(=O)c1cnccn1)c1ccncc1` gave PKD1 inh 6.5, Insulin prom inh -50.0, HSV augment inactive, RGS16-Gao 100.9, Insulin prom inh cell count 112.2 and HSV augment primary fold 0.91.
For Cc1ccc2cc(CCNC(=O)c3ccc(C)c([N+](=O)[O-])c3)c(=O)[nH]c2c1 the results were PKD1 inh -0.5, HSV augment inactive, GALR2 agonist -1.2, RGS16-Gao 96.8 and HSV augment primary fold 0.75.
`Cc1ccc(N)cc1S(=O)(=O)N(C)C` gave PKD1 inh -9.7, Insulin prom inh 30.0, HSV augment inactive, RGS16-Gao 102.7, Insulin prom inh cell count 115.7 and HSV augment primary fold 0.86.
For O=C(Nc1ncn[nH]1)c1cc(S(=O)(=O)Nc2ccc(Cl)cc2)ccc1Cl the results were PKD1 inh -6.8, Insulin prom inh -13.3, HSV augment inactive, GALR2 agonist -1.1, RGS16-Gao 106.2, Insulin prom inh cell count 100.0 and HSV augment primary fold 0.86.

Fetched by compound from above (5):
COCCSc1nnc(NC(=O)c2cc(OC)c(OC)cc2[N+](=O)[O-])s1 was read as PKD1 inh -4.0, HSV augment inactive, RGS16-Gao 101.5 and HSV augment primary fold 0.99.
`Cc1ccc(N)cc1S(=O)(=O)N(C)C` gave PKD1 inh -9.7, Insulin prom inh 30.0, HSV augment inactive, RGS16-Gao 102.7, Insulin prom inh cell count 115.7 and HSV augment primary fold 0.86.
CCCc1nnc(SCC(=O)O)n1/N=C/c1ccc2c(c1)OCO2 was read as PKD1 inh -3.8, Insulin prom inh -9.1, HSV augment inactive, GALR2 agonist -1.4, RGS16-Gao 72.0, Insulin prom inh cell count 57.0 and HSV augment primary fold 0.94.
For O=C(Nc1ncn[nH]1)c1cc(S(=O)(=O)Nc2ccc(Cl)cc2)ccc1Cl the results were PKD1 inh -6.8, Insulin prom inh -13.3, HSV augment inactive, GALR2 agonist -1.1, RGS16-Gao 106.2, Insulin prom inh cell count 100.0 and HSV augment primary fold 0.86.
For CC#CCN(CC#CC)S(=O)(=O)c1ccc(S(=O)(=O)N2CCOCC2)cc1 the results were PKD1 inh 0.0, Insulin prom inh -6.1, HSV augment inactive, GALR2 agonist -1.9, RGS16-Gao 103.0, Insulin prom inh cell count 97.5 and HSV augment primary fold 0.95.

Next results.
CCOC(=O)c1[nH]c(C)c(CN(C(C)=O)c2ccc(OCC)cc2)c1C was read as PKD1 inh -8.9, Insulin prom inh 57.1, HSV augment inactive, RGS16-Gao 87.9, Insulin prom inh cell count 96.8 and HSV augment primary fold 0.89.
`Cc1ccc(S(=O)(=O)Nc2ccc(NC(=O)CN3CCCCC3)c(Cl)c2)cc1` gave PKD1 inh 2.9, Insulin prom inh 37.5, HSV augment inactive, GALR2 agonist -4.5, RGS16-Gao 100.7, Insulin prom inh cell count 47.6 and HSV augment primary fold 0.86.
For Cc1ccc(Cl)c(OCCN2CCCC(C)C2)c1 (configuration not stated) the results were PKD1 inh -15.3, Insulin prom inh -21.4, HSV augment inactive, GALR2 agonist -0.1, RGS16-Gao 112.9, Insulin prom inh cell count 155.6 and HSV augment primary fold 0.84.
`CCOC(=O)c1sc2nc(N3CCOCC3)c3c(c2c1N)CCC3` gave PKD1 inh -21.1, Insulin prom inh 20.0, HSV augment inactive, GALR2 agonist -1.1, RGS16-Gao 104.5, Insulin prom inh cell count 135.0 and HSV augment primary fold 0.83.
For NCc1ccc2[nH]c(=O)[nH]c2c1 the results were PKD1 inh -2.5, HSV augment inactive, RGS16-Gao 99.5 and HSV augment primary fold 1.
`COc1ccc(/C=N/N2CCN(C)CC2)c(OC)c1OC` gave PKD1 inh -0.9, Insulin prom inh 38.5, HSV augment inactive, RGS16-Gao 106.1, Insulin prom inh cell count 79.9 and HSV augment primary fold 0.99.
For COc1ccccc1N1CCN(C(=O)C2CCN(S(=O)(=O)N3CCOCC3)CC2)CC1 the results were PKD1 inh -6.8, Insulin prom inh -64.3, HSV augment inactive, GALR2 agonist -2.0, RGS16-Gao 96.2, Insulin prom inh cell count 91.8 and HSV augment primary fold 1.01.
Screening O=C(Nc1cccc(S(=O)(=O)NC2=NCCCCC2)c1)c1cc(-c2ccccc2Cl)nc2ccccc12 returned PKD1 inh -0.8, Insulin prom inh -40.0, HSV augment inactive, GALR2 agonist -0.1, RGS16-Gao 100.6, Insulin prom inh cell count 107.8 and HSV augment primary fold 0.79.
Screening CC1(C)CC(=O)C(C=NCCN2CCN(CC(=O)Nc3ccc(F)cc3)CC2)=C(O)C1 returned HSV augment inactive, RGS16-Gao 101.2 and HSV augment primary fold 1.08.
`Cc1cc(=O)c(C(=O)O)nn1-c1ccccc1` gave PKD1 inh -6.7, Insulin prom inh -20.0, HSV augment inactive, RGS16-Gao 105.5, Insulin prom inh cell count 92.9 and HSV augment primary fold 0.86.
Screening Cc1c(Cl)cccc1Nc1nc(N)nc(CSc2nc3ccccc3s2)n1 returned PKD1 inh -12.6, HSV augment inactive, GALR2 agonist -0.2, RGS16-Gao 94.1 and HSV augment primary fold 1.09.
For Cc1ccc(NC(=O)c2[nH]cnc2C(=O)NN)cc1 the results were PKD1 inh -5.9, HSV augment inactive, RGS16-Gao 109.4 and HSV augment primary fold 0.82.
For Nc1nonc1-n1nnc(C(=O)N/N=C/c2cccnc2)c1CSC1=NCCS1 the results were HSV augment inactive, RGS16-Gao 97.4 and HSV augment primary fold 1.05.
Screening COc1ccccc1CO/N=C/c1cccn1-c1nccc(N(C)C)c1C#N returned PKD1 inh -4.9, Insulin prom inh -80.7, HSV augment inactive, GALR2 agonist -0.3, RGS16-Gao 97.6, Insulin prom inh cell count 54.9 and HSV augment primary fold 0.85.
`O=C(C1CCCCN1S(=O)(=O)c1ccccc1)N1CCN(C(c2ccccc2)c2ccccc2)CC1` (configuration not stated) gave PKD1 inh -1.2, Insulin prom inh -32.4, HSV augment inactive, GALR2 agonist 0.7, RGS16-Gao 95.7, Insulin prom inh cell count 39.8 and HSV augment primary fold 1.17.
Screening O=C(Nc1cccc(S(=O)(=O)Nc2ccccc2Cl)c1)c1ccc(N2CCCC2)c([N+](=O)[O-])c1 returned PKD1 inh -5.0, HSV augment inactive, GALR2 agonist -1.2, RGS16-Gao 97.7 and HSV augment primary fold 1.28.
For COc1cc(C(=O)N[C@@H](C)C(=O)NCc2ccco2)cc(OC)c1OC the results were PKD1 inh -0.2, HSV augment inactive, RGS16-Gao 97.3 and HSV augment primary fold 0.93.

Bioassay records: PubChem, several laboratories

An unsorted share of the library. Share with any hit: about 1.3%.
